GALR2 agonist – GALR2 receptor agonists, primary screen, cell-based; Galanin receptor type 2 (Homo sapiens), O43603; GALR2-expressing cells, agonist activation read-out; activation, %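 (tested at 5 µM)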; 0.48% of 140,000 active; AID 803, 2007;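 active = above mean plus 3 SD of all compounds, about 5% in these data, not always enough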;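 note: 0% = vehicle buffer wells and 100% = reference agonist at full effect; tested in CHO reporter cells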
RGS16-Gao – modulators of RGS16 binding to Galphao, primary screen, biochemical, human proteins, multiplexed bead flow cytometry; AID 1441, 2008; bead-based flow cytometry RGS16-Galphao binding, fluorescence; actives lie on both sides; 0.38% of 220,000 active; binding response (% of control), % at 10 µM;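 active = below 25% or above 175%, edge rows of some plates excepted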;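 note: Galphao activated by GDP with aluminum fluoride before binding; 100% = wells without compound and 0% = beads without RGS; some results beyond the cut were filed as inactive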
PKD1 kinase inh – inhibitors of human PKD1 kinase, biochemical, fluorescence polarization; inhibition, %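 (about 10 µM by stock and volumes)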; AID 797, 2007; PKD1 kinase fluorescence polarization assay; 0.056% of 200,000 active;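 active = inhibition of 50% or more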;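 note: controls were vehicle for no effect and a reference inhibitor for full effect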
Target sequence (Q15139 whole entry, looked up): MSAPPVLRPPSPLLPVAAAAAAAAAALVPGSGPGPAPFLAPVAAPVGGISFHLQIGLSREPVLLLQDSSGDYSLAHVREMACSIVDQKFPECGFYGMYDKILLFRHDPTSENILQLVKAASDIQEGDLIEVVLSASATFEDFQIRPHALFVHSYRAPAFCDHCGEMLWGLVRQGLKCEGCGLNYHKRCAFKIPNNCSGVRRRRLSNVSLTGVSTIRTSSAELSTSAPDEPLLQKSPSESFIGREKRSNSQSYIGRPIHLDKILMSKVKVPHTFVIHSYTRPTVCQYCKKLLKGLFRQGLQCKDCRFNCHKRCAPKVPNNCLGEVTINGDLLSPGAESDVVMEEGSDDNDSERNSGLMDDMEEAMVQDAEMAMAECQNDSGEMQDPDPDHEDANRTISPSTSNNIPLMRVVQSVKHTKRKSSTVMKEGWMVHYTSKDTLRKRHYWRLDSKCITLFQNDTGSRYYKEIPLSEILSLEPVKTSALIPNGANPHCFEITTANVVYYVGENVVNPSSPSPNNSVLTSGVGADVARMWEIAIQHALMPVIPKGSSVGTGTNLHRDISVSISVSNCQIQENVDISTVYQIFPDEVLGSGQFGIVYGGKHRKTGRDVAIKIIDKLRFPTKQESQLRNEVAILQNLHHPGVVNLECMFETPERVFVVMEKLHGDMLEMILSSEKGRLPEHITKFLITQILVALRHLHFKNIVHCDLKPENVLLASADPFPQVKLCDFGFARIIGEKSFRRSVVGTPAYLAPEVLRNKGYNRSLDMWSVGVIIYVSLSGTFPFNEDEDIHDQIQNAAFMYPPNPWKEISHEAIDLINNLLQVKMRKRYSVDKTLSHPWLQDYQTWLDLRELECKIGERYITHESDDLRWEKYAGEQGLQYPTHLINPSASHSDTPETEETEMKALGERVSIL
INS promoter inh – inhibitors of insulin promoter-driven GFP, primary screen, imaging, TRM-6 cells (human fetal islet line), eGFP reporter, cell count; reporter expression induced with tamoxifen; inhibition, % at 2 µM; 0.9% of 130,000 active; AID 1273, 2008;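 active = inhibition above the mean plus 3 SD, with well images judged a real hit on visual review, cut at about 60% in these data, passing the limit was not always enough; inconclusive = inhibition over the cutoff but images rejected on review; inactive = inhibition not above the cutoff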
HSV replic up – enhancers of HSV replication in host cells, fold increase, host cell viability | maximum fold increase | 0.005% of 220,000 active | HSV replication augmentation in cells;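 active = peak rise of 1.5-fold or more in the series; inconclusive = self-fluorescent or not available for retest; tested in PC3 cells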;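 note: first round at 10 µM; read as green reporter fluorescence; hits show the peak of a series up to 25 µM; 1 = signal of infected wells without compound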
INS promoter inh cell count – also measured in INS promoter inh; calls as there; normalized cell count, %; measured here: cell count, toxicity; reference of the scale not given here;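 cells exposed to compound for 48 h; stained nuclei by imaging scaled within each plate; lower means fewer cells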
HSV replic up primary fold – also measured in HSV replic up; calls as there; fold increase; compound at 10 µM; measured here: primary screen fold increase 10 uM; tested in PC3 cells;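 GFP signal in the first replicate; 1 = infected wells without compound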
An asterisk follows results filed as active; i = inactive; ? = inconclusive; · = not tested or not shown.

Structure,GALR2 agonist,RGS16-Gao,PKD1 kinase inh,INS promoter inh,INS promoter inh cell count,HSV replic up,HSV replic up primary fold
Cc1ccccc1NC(=O)N1C2CCCC1CC(NC(=O)C(C)(C)C)C2 (centres undefined),-1.3,98,-14,36,128,i,0.96
CCOC(=O)c1c(C)[nH]c(C(=O)OC)c1CCC(=O)OC,-0.6,102,1,·,·,i,0.96
COc1ccc(NC(=S)NC2CCCCC2)c(OC)c1,·,102,11,-45,219,i,0.91
O=C(c1cc(-c2ccccn2)nc2ccc(Br)cc12)N1CCN(S(=O)(=O)c2ccccc2)CC1,·,100,-7,·,·,i,1
O=C(Nc1nc2cc3c(cc2s1)OCCO3)c1ccncc1,·,100,-7,·,·,i,1.1
N#C/C(=C\c1c(N2CCOCC2)nc2ccccn2c1=O)C(=O)NC1CCS(=O)(=O)C1 (centres undefined),·,92,·,·,·,i,0.83
CCN1C(=C2C(=O)c3ccccc3C2=O)C=Cc2ccccc21,-1.0,101,-6,18,111,i,1
CC(C)CCNC(=O)C(=O)NCCC1=CCCCC1,-0.4,105,-4,15,113,i,0.9
Cc1ccc(S(=O)(=O)NCc2ccc(C(=O)NC3CC3)cc2)cc1,-2.0,106,-9,-39,114,i,0.92
Cc1oc(-c2ccccc2)cc1C(=O)NC1CCN(Cc2ccccc2)CC1,·,114,·,·,·,i,0.89
O=C(Nc1nnc(-c2ccc(F)cc2)s1)Nc1ccccc1F,·,98,·,·,·,i,1.1
Cc1ccc(S(=O)(=O)/C(C#N)=C/c2c(N3CCC(C(N)=O)CC3)nc3c(C)cccn3c2=O)cc1,-0.4,114,-5,22,101,i,0.95
Cc1cc(C)cc(N=C2SC(CC(=O)Nc3ccccc3)C(=O)N2CCN2CCOCC2)c1 (centres undefined),·,102,10,·,·,i,0.77
COc1cc([C@@H]2c3cc4c(cc3[C@H](O)[C@H]3COC(=O)[C@H]23)OCO4)cc(OC)c1OC,2.7,97,4,-14,8,i,0.56
O=C(CSc1n[nH]c(=O)n1Cc1ccco1)c1ccc(F)cc1,·,100,·,·,·,i,0.96
CCOC(=O)c1c(C)n(C)c2ccc(OCC(O)Cn3c(C)nc4ccccc43)cc12 (centres undefined),-1.1,102,0,13,153,i,0.77
Cc1ccc(NNC(=O)c2ccc(Cl)cc2)nn1,·,96,·,·,·,i,0.83
Cc1ccc(-n2cc(CN3CCC(CO)(Cc4cccc(C(F)(F)F)c4)CC3)cn2)cc1,·,100,1,·,·,i,0.8
O=C(CCC(=O)NNC(=O)c1ccccc1[N+](=O)[O-])NCc1ccccc1,·,93,2,·,·,i,0.63
Cc1ccc(C(=O)OC(C)CN2CCN(C)CC2)cc1 (centres undefined),·,100,·,·,·,i,0.97
O=C(Cc1ccccc1)NCc1ccc(-n2cccc2)cc1,·,100,2,·,·,i,0.81
Cc1ccc(OCCCn2ccnc2)cc1C,-1.2,102,2,13,88,i,0.97
COC(=O)c1cc(NS(=O)(=O)c2ccc(F)cc2)ccc1N1CCOCC1,·,100,·,·,·,i,1.1
Cc1ccccc1C(=O)NNC(=O)c1ccc(F)cc1,-1.2,96,-2,-29,107,i,0.88
CCOc1ccc(NC(=O)c2cc3c(C)nc4ccccc4c3o2)cc1,-0.9,102,0,·,·,i,0.59
COc1ccccc1NC(=S)Nc1ccc2cn[nH]c2c1,·,96,-12,·,·,i,1.1
COc1cc(/C=c2\s/c(=C(/C#N)C(=O)N3CCCC3)n(-c3ccccc3)c2=O)ccc1O,-0.4,96,-2,·,·,?,·
O=C1NC(c2ccccc2OC(F)F)Oc2ccccc21 (centres undefined),·,101,-2,-150,72,i,0.96
O=C(CSc1ccccc1)NC(=O)NCc1ccccc1,·,103,·,·,·,i,0.89
O=c1c2ccccc2nnn1CCO,·,100,3,·,·,i,0.99
CCc1nc2c3cnn(-c4cc(Cl)ccc4C)c3ncn2n1,-0.4,106,0,-12,103,i,0.82
O=C(CSC1=NCCS1)NC(c1ccccc1)c1ccccc1,-1.8,109,-2,6,78,i,1.1
O=C(O)Cc1ccc(NC(=O)C2CC=CCC2C(=O)O)cc1 (centres undefined),-3.4,106,-10,26,107,i,0.97
CCOC(=O)C1(C(=O)OCC)CC1c1ccccc1 (centres undefined),-1.8,102,5,-23,129,i,0.97
CC(C)CNC(=O)C(=O)NCc1ccccc1,·,96,5,·,·,i,0.83
COc1cccc(NC(=O)CCN2CCC(C(N)=O)CC2)c1,-3.0,126,-17,·,·,i,1.1
CCN(CC)S(=O)(=O)c1ccc(C)c(NC(=S)N2CCN(Cc3ccc4c(c3)OCO4)CC2)c1,·,108,8,32,110,i,0.79
COc1cc(CO)ccc1OCc1ccc(Cl)nc1,·,103,·,·,·,i,1.2
CCCC(=O)N1N=C(c2ccccc2)CC1c1cn(C)c2ccccc12 (centres undefined),-1.0,105,-1,-68,71,i,1
Cc1cccc(OCCCC(=O)N2CCCc3ccccc32)c1C,1.3,107,6,-14,105,i,1.2

Just PKD1 kinase inh and HSV replic up primary fold (5 entries from above):
SMILES | PKD1 kinase inh | HSV replic up primary fold
CC(C)CNC(=O)C(=O)NCc1ccccc1 | 5 | 0.83
COc1cccc(NC(=O)CCN2CCC(C(N)=O)CC2)c1 | -17 | 1.1
CCN(CC)S(=O)(=O)c1ccc(C)c(NC(=S)N2CCN(Cc3ccc4c(c3)OCO4)CC2)c1 | 8 | 0.79
COc1cc(CO)ccc1OCc1ccc(Cl)nc1 | · | 1.2
CCCC(=O)N1N=C(c2ccccc2)CC1c1cn(C)c2ccccc12 (centres undefined) | -1 | 1

(list continues)
Structure,GALR2 agonist,RGS16-Gao,PKD1 kinase inh,INS promoter inh,INS promoter inh cell count,HSV replic up,HSV replic up primary fold
Cc1ccc(-n2c(C)cc(/C=N/NC(=O)Cn3c4ccccc4c(=O)c4ccccc43)c2C)cc1,3.9,99,2,-38,118,i,0.84
Cc1ccc(NC2=NCCC2)cc1Cl,-1.6,103,0,61,31,i,0.99
CCOC(=O)N1CCN(Cc2ccc(O)c3ncccc23)CC1,·,96,5,·,·,i,0.8
CCn1c(=O)c(C(=O)CC#N)c(N)n(Cc2ccccc2)c1=O,·,99,·,·,·,i,1.1
NC(=O)c1nsc(C(=O)N(CC(=O)NC2CCCC2)c2cnc3ccccc3c2)c1N,·,94,·,·,·,i,1.1
CCC(C)C1NC(=S)N(Cc2ccccc2)C1=O (centres undefined),-1.1,107,1,-34,85,i,0.96
COc1cc(/C=N/N2CCOCC2)ccc1OCc1ccc(Cl)cc1,·,136,-2,-44,69,i,0.97
CCOC(=O)C1CCN(C(=O)c2cccc(Cl)c2)CC1,-0.9,103,-11,-408,40,i,1.1
Cc1cc(C)cc(NC(=O)CSc2ncc(S(=O)(=O)c3ccccc3)c(=O)[nH]2)c1,-1.0,108,-2,-32,111,i,0.84
Cc1cc(-c2n[nH]c(=S)n2-c2ccccc2)nn1C,-2.1,89,3,33,61,i,0.87
Cc1ccc(Nc2ccc([N+](=O)[O-])nc2[N+](=O)[O-])cc1,-1.5,98,-8,5,117,i,0.92
CC(=O)c1cc2c(cc1NC(=O)CN1CCCCC1C)OCO2 (centres undefined),-0.5,107,-3,3,126,i,0.81
Cc1c(NC(=O)c2ccc3ncccc3c2)c(=O)n(-c2ccccc2)n1C,0.0,104,-2,5,61,i,0.99
O=C(OCCN1C(=O)c2cccc3c(N4CCOCC4)ccc(c23)C1=O)c1ccc(Cl)cc1Cl,-0.3,101,-6,·,·,·,·
O=C1C(Cl)=C(N2CCCCC2)C(=O)C(Cl)=C1c1cnc(N2CCCCC2)s1,-2.9,32,-5,i,58,i,0.89
O=C(CSCc1ccc(Cl)cc1)Nc1cc([N+](=O)[O-])ccc1O,·,103,-6,·,·,i,0.95
CCCCN1C(=O)C(O)=C(C(C)=O)C1c1ccccc1 (centres undefined),172*,105,5,38,124,i,1.1
CN1C(=O)CSc2ccc(NC(=O)N3CCOCC3)cc21,-2.9,102,-2,-67,141,i,0.83
COc1ccc(Cn2c(-c3ccc(OC)cc3)nc3c(c(=O)c4ccccc4n3C)c2=O)cc1,0.7,112,-9,·,·,i,0.84
Nc1ccc(C(=O)c2cccs2)cc1,0.0,108,3,·,·,i,0.92
Cc1ccc2nc(SC(C(=O)c3ccccc3)c3ccccc3)nc(C)c2c1 (centres undefined),-0.1,107,-7,-11,80,i,1
CCN(CC)C(=O)CSC1=Nc2ccccc2C2=NC(Cc3c[nH]c4ccccc34)C(=O)N12 (centres undefined),-1.1,105,-5,-39,59,i,1.1
CC1CCCCC1NC(=O)CN1C(=O)NC(Cc2ccccc2)(Cc2ccccc2)C1=O (centres undefined),-0.7,99,-4,24,134,·,·
CCn1c2ccccc2c2nn(C)c(=N)nc21,-3.9,101,-8,3,110,i,0.98
CCCOC(=O)NC1CCS(=O)(=O)C1 (centres undefined),0.1,85,0,-29,112,i,1
Cc1ccc(C(C)C)cc1S(=O)(=O)NCc1cccnc1,-1.8,94,-7,-48,138,i,1.2
CC(C)c1nc2oc3c(N(C)CCO)ncnc3c2c2c1CCC2,·,103,·,·,·,i,1
CC(=O)NCCn1c(SCC(=O)NCc2ccco2)nc2ccccc2c1=O,-2.4,98,1,0,63,i,0.88
COc1cccc(CN(C)CC(=O)NC(=O)NCc2ccco2)c1,-0.7,87,-5,-45,114,i,0.85
O=c1nc2scc(-c3ccccc3)n2c2ccccc12,-1.8,99,3,-64,112,i,0.99
CCOc1ccc(N/C=C/C(=O)c2ccc3ccccc3c2)c([N+](=O)[O-])c1,0.1,99,4,-5,68,i,0.97
COc1ccc(OCC(=O)N2CCN(C(=O)COc3ccccc3)CC2)cc1,-1.0,105,1,-411,70,i,0.97
CC(C)NC(=O)c1ccc(CNC(=O)OCC(F)(F)F)cc1,4.7,-16,-1,11,115,i,0.87
Cc1cccc(C2Nc3ccccc3C(=O)N2CCc2ccccc2)n1 (centres undefined),-2.0,97,-12,40,61,i,0.8
CSCC(=O)NS(=O)(=O)c1ccc(C)cc1,-1.1,58,-1,45,116,i,0.74
CCOc1cc(C=C2C(=O)c3ccccc3C2=O)ccc1OCC(=O)Nc1ccc(C)cc1,-1.1,90,4,·,·,?,·
COc1ccc(-c2noc(COc3ccc(Cl)c(C)c3)n2)cc1,-1.7,100,-7,·,·,i,0.89
Cc1ccnc2nc(C(=O)OCC(=O)c3c[nH]c4ccccc34)nn12,·,100,·,·,·,i,1
CC1CCCC(C)N1C(=O)CSc1nnc(-c2c[nH]c3ccccc23)o1 (centres undefined),-0.6,94,-4,43,130,i,0.88
Cc1ccc(-c2cc(C(F)(F)F)n3ncc(C(=O)N4CCCCC4c4cccnc4)c3n2)cc1 (centres undefined),·,100,-3,-53,48,i,0.95
COC(=O)c1c(NC(=O)CN2C(=O)NC3(CCC(C(C)(C)C)CC3)C2=O)sc2c1CCCCC2 (centres undefined),-1.6,98,1,·,·,i,0.98
CCOC(=O)c1cc2n(c1N)-c1ccccc1C2=O,-1.6,100,13,-16,148,i,1.1
CCOC(=O)C1=C(N)OC2=C(C(=O)CC(C)(C)C2)C1c1ccc(CC)s1 (centres undefined),·,107,-3,0,106,·,·
CCCOc1cccc(C(=O)NC(=S)Nc2ccccc2)c1,0.9,100,4,3,89,i,1
CC(=O)O[C@H]1CC(C)(C)C(=C=C/C(C)=C/C=C/C(C)=C/C=C/C=C(C)/C=C/C=C(\C)C(=O)C[C@@]23O[C@]2(C)C[C@@H](O)CC3(C)C)[C@](C)(O)C1,·,102,·,·,·,i,0.93
CCN(CC)S(=O)(=O)c1ccc(Cl)c(NC(=O)CCCCl)c1,·,102,·,·,·,i,1
COc1cc(OC)cc(C(=O)N=c2sc3ccccc3n2C)c1,·,103,-6,-7,155,i,0.82

Bioassay records deposited in PubChem BioAssay by several laboratories.
